Rango release inh – prevents RanGTP from dissociating the Rango-importin beta complex; O95149+P62826; Biochemical FRET Rango-importin beta, RanGTP-induced dissociation; Potency, µM (doses to about 46.1 µM), for inactives: top-dose activity change, negative = inhibition; actives 0.071% (n = 340,000); active means falling FRET ratio curve, often poorly fitted, with flat reads before Ran was added; inconclusive means other falling curves, or compound fluorescence or quenching; inactive means flat or rising ratio curve;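 also: potency is read from the fitted curve at half-maximal effect; % of control where 0% means no effect; nearly all actives have a fitted effect of over 45% in size; -100% = wells without RanGTP and RCC1; the record marks most hits as doubtful in a second field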
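Quantitative HTS using a FRET biosensor: 0.1 uM Rango, 0.25 uM importin beta, 0.6 uM Ran, 2 mM GTP, 0.2 uM RCC1 final, PBS with DTT, Tween-20 and BSA. Post-read taken 45 min after Ran addition.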
Rango-impB inh – Rango-importin beta binding inhibition. Q14974. Rango CFP/YFP FRET sensor + importin beta, 45 min. Potency, µM (titrated, usually from 92.2 µM), without a hit: at the highest dose inhibition of complex formation. actives 0.031% (n = 340,000). AID 540263; active = rising FRET ratio curve, often small or poorly fitted; inconclusive = mostly compound fluorescence or quenching in the first reads; inactive = flat curves in all reads;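 also: potency is read from the fitted curve at half-maximal effect; 0% = DMSO wells and 100% = buffer wells lacking importin beta; nearly all actives have a fitted effect of over 15% in size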
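FRET biosensor Rango (snurportin 1 IBB between N-terminal EYFP and C-terminal Cerulean), 50 nM in PBS/1 mM DTT/0.02% Tween-20/0.1% BSA, preincubated 5 min RT with compound; 0.125 microM importin beta added, 45 min RT, CFP/YFP FRET ratio read.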
miR-21 FLuc – raises the signal of a miR-21 reporter. HeLa miR-21 FLuc reporter, luciferase, 48 h. Potency, µM (series often up to 38.3 µM), without a hit: top-dose reporter change, positive = more light. 340,000 tested, under 10 active. AID 2288; active = well fitted rising curve with a large enough effect; inconclusive = small, poorly fitted or top-dose-only effect; inactive = no such curve, though single readings can be large or run the other way;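 also: % of control where 0% means no effect; miR-21 action dims this reporter so a rising signal means less miR-21 action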
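HeLa cells stably expressing CMV-driven firefly luciferase with a downstream miR-21 binding sequence, endogenously expressing miR-21, were treated with titrations (up to about 40uM final) for 48 hours at 37 degree Celsius. Luciferase luminescence was read after lysis.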
GLA inh pH 4.5 – inhibitors of human alpha-galactosidase A at pH 4.5. P06280. purified enzyme, 4-MU-alpha-Gal fluorescence, pH 4.5. activity change, negative = inhibition, % at 105 µM. 230,000 tested, under 10 active; inconclusive = small, poorly fitted or top-dose-only inhibition, or a rising curve; inactive = flat fitted curve, though single readings scatter; no compound was filed as active;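 also: 0% = full activity with enzyme and -100% = basal without enzyme; dose as in the result columns while the protocol names 77 µM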
Target sequence (P06280 whole entry, looked up): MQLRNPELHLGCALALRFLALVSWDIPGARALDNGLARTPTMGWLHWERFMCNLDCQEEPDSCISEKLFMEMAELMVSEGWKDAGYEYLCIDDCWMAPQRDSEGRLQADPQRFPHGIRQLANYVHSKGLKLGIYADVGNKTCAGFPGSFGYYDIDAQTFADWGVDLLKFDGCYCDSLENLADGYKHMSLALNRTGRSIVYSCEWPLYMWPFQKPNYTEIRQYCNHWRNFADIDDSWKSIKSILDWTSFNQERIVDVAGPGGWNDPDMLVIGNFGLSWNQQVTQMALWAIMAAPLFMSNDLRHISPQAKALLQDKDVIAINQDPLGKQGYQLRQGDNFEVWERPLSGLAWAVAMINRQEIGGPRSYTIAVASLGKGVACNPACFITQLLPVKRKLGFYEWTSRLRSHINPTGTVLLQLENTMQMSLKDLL
An asterisk follows results filed as active. Not all compounds are listed; the hit share may differ from the screen's.

Screening Cc1ccc2c(c1)N(CCCC(=O)NCc1ccc3c(c1)OCO3)C(=O)CO2 returned Rango release inh -10%, Rango-impB inh -2.9%, miR-21 FLuc 1% and GLA inh pH 4.5 2.
Cc1cc(C)n(S(=O)(=O)c2ccccc2[N+](=O)[O-])n1 was read as Rango release inh 0%, Rango-impB inh 1.2% and miR-21 FLuc 7%.
`CCCCN(C(=O)CNC(=O)c1cccs1)C(C(=O)NC1CCCC1)c1ccncc1` (centres undefined) gave Rango release inh 0%, Rango-impB inh 0.1%, miR-21 FLuc -1% and GLA inh pH 4.5 -2.
For COc1ccc(C)cc1NC(=O)Cn1c(=O)oc2ccccc21 the results were Rango release inh -17%, Rango-impB inh -0.2% and miR-21 FLuc 4%.
Screening O=C(NCCCCc1ccccc1)c1cccc([N+](=O)[O-])c1 returned Rango release inh 1%, Rango-impB inh 0.3%, miR-21 FLuc 0% and GLA inh pH 4.5 1.
Screening O=C(O)C(c1ccccc1)N1C(=O)/C(=C\c2ccc(-c3ccccc3Cl)o2)SC1=S (centres undefined) returned Rango release inh inconclusive, Rango-impB inh inconclusive and miR-21 FLuc 1%.
Cc1ccnc(N2C(=O)c3ccccc3C2Nc2ccccc2Cl)c1 (centres undefined) was read as Rango release inh -6%, Rango-impB inh -3.1%, miR-21 FLuc -13% and GLA inh pH 4.5 0.
For Cc1ccc(S(=O)(=O)N(CC(=O)Nc2cccc(C(F)(F)F)c2)C(=O)N2CCN(C)CC2)cc1 the results were Rango release inh 9% and Rango-impB inh -2.4%.
For O=C(c1ccccc1)C(C(=O)N1CCc2ccccc2C1)n1ccccc1=O (centres undefined) the results were Rango release inh -8%, Rango-impB inh -1.8%, miR-21 FLuc -10% and GLA inh pH 4.5 -1.
For CCOC(=O)N1CCN(C(=O)c2ccccc2Oc2ccccc2)CC1 the results were Rango release inh 24%, Rango-impB inh 0.0%, miR-21 FLuc -6% and GLA inh pH 4.5 2.
Screening Nc1cc(Cl)c(N)cc1Cl returned Rango release inh 4%, Rango-impB inh -0.2%, miR-21 FLuc -12% and GLA inh pH 4.5 9.
O=C(N/N=C/C=C\c1ccccc1[N+](=O)[O-])c1cc(-c2ccccc2)nc2ccccc12 was read as Rango release inh 8%, Rango-impB inh -1.9%, miR-21 FLuc -13% and GLA inh pH 4.5 -5.
O=C(COC(=O)/C=C/c1ccccc1[N+](=O)[O-])Nc1ccc2[nH]c(=O)[nH]c2c1 was read as Rango release inh 0% and Rango-impB inh -1.7%.
Screening COc1ccc(C(C)=O)cc1CSc1nnc(C)n1-c1ccccc1 returned Rango release inh -5%, Rango-impB inh 11%, miR-21 FLuc -7% and GLA inh pH 4.5 -4.
`COc1cc(N)ccc1NC(=O)c1cccs1` gave Rango release inh -5%, Rango-impB inh 6.1%, miR-21 FLuc -12% and GLA inh pH 4.5 -5.
`NC(=O)C1CCN(C(=O)COc2ccc(S(=O)(=O)NC3CCCC3)cc2)CC1` gave Rango release inh -9%, Rango-impB inh -2.4% and miR-21 FLuc -1%.
CCCCNC(=O)Nc1nnc(SCC(=O)OCC)s1 was read as Rango release inh 3%, Rango-impB inh 1.1%, miR-21 FLuc 0% and GLA inh pH 4.5 -6.
Screening COC(=O)/C=C1\SC(=Nc2ccc(Cl)c(Cl)c2)NC1=O returned Rango release inh -2%, Rango-impB inh -2.5%, miR-21 FLuc -3% and GLA inh pH 4.5 -8.
For COc1cc(SC)ccc1C(=O)Nc1ccc(Br)cn1 the results were Rango release inh 1%, Rango-impB inh -1.4%, miR-21 FLuc -15% and GLA inh pH 4.5 2.
O=C(Cn1cnc2c(nnn2Cc2ccc(F)cc2)c1=O)NCC1CCCO1 (centres undefined) was read as Rango release inh 5%, Rango-impB inh -0.3%, miR-21 FLuc -3% and GLA inh pH 4.5 6.
`CN(C)N=Nc1ccc(S(=O)(=O)/N=C(\O)c2ccccc2)cc1` gave Rango release inh -15%, Rango-impB inh -2.3% and miR-21 FLuc 1%.
For CCOc1ccccc1NC(=O)N1CCCC1C(=O)NCc1cccs1 (centres undefined) the results were Rango release inh -11%, Rango-impB inh -1.0% and miR-21 FLuc 12%.
`O=C(CN(C(=O)c1csnn1)c1ccc(Br)cc1)NC1CCCC1` gave Rango release inh -7%, Rango-impB inh -4.8% and miR-21 FLuc -6%.
Screening CC1=C([N+](=O)[O-])C(c2ccc(Cl)cc2)NC(=O)N1C (centres undefined) returned Rango release inh -7%, Rango-impB inh 5.2% and miR-21 FLuc 1%.
`CCC(=O)Nc1cc(Cl)ccc1N1CCN(C(=O)CC)CC1` gave Rango release inh 3%, Rango-impB inh -1.3%, miR-21 FLuc 5% and GLA inh pH 4.5 10.
CC1Cn2c(nnc2-c2cccs2)S1 (centres undefined) was read as Rango release inh -12% and Rango-impB inh 0.4%.
For Cc1nnn(-c2nonc2N)c1C(=O)N/N=C/c1ccccc1O the results were Rango release inh 11%, Rango-impB inh inconclusive, miR-21 FLuc -4% and GLA inh pH 4.5 -4.
C[C@@H](NC(=O)c1[nH]cnc1C(=O)Nc1ccon1)c1ccccc1 was read as Rango release inh -4% and Rango-impB inh 0.3%.
For O=C(CCn1cnc(-c2ccccc2)c1-c1ccccc1)N/N=C/c1ccc(O)cc1 the results were Rango release inh -2%, Rango-impB inh -0.3%, miR-21 FLuc 17% and GLA inh pH 4.5 -10.
`CC(C)CCN1CC(=O)N2Cc3[nH]c4ccccc4c3C[C@H]2C1=O` gave Rango release inh 13%, Rango-impB inh 5.5% and miR-21 FLuc -6%.

3 entries from above, ordered by SMILES length, largest number first.
`NC(=O)C1CCN(C(=O)COc2ccc(S(=O)(=O)NC3CCCC3)cc2)CC1` gave Rango release inh -9%, Rango-impB inh -2.4% and miR-21 FLuc -1%.
`CCC(=O)Nc1cc(Cl)ccc1N1CCN(C(=O)CC)CC1` gave Rango release inh 3%, Rango-impB inh -1.3%, miR-21 FLuc 5% and GLA inh pH 4.5 10.
CC1Cn2c(nnc2-c2cccs2)S1 (centres undefined) was read as Rango release inh -12% and Rango-impB inh 0.4%.

Later entries:
For CSc1nsc(SC)c1NC(=O)N1CCCCC1 the results were Rango release inh 8%, Rango-impB inh inconclusive, miR-21 FLuc -1% and GLA inh pH 4.5 2.
CCCCCn1c(=O)[nH]c2cc(C(=O)N3CCN(c4ccc(C(C)=O)cc4)CC3)ccc2c1=O was read as Rango release inh -3%, Rango-impB inh 6.3% and miR-21 FLuc 8%.
Screening Cc1ccc2nc3c(nc2c1)-c1ccccc1C3=O returned Rango release inh 26%, Rango-impB inh -0.8%, miR-21 FLuc -19% and GLA inh pH 4.5 5.
`CC(C)Nc1nc(NC(C)C)nc(C(N)=O)n1` gave Rango release inh 14%, Rango-impB inh 1.2%, miR-21 FLuc 6% and GLA inh pH 4.5 3.
`CC(=O)NC(NC(=S)Nc1ccc(N=Nc2ccccc2C)cc1C)C(Cl)(Cl)Cl` (centres undefined) gave Rango release inh 52%, Rango-impB inh -1.0%, miR-21 FLuc -25% and GLA inh pH 4.5 -15.
`CC1(C2CC2)NC(=O)N(CC(=O)Nc2ccccc2F)C1=O` (centres undefined) gave Rango release inh 10% and Rango-impB inh 0.6%.
`C#CCOCCOCCOCCNc1nc(N2CCN(C(=O)CCCCCCCCCCNC(=O)[C@@H](CCC(=O)O)n3cc(CCCCCN)nn3)CC2)nc(N2CCN(C(=O)CCCCCCCCCCNC(=O)[C@H](CCCCN)n3cc(C[C@@H](C)CC)nn3)CC2)n1` gave Rango release inh -5% and Rango-impB inh inconclusive.
O=C(COC(=O)C1CCCCC1)NCc1ccc(Cl)cc1 was read as Rango release inh -8% and Rango-impB inh 5.0%.
For COc1ccccc1NC(=O)CCC(=O)Nc1nnc(C(F)(F)F)s1 the results were Rango release inh 17%, Rango-impB inh -4.6%, miR-21 FLuc -2% and GLA inh pH 4.5 -10.
Screening Cc1cc(N2CCN(c3ccccn3)CC2)n2nc(C)nc2n1 returned Rango release inh 8% and Rango-impB inh 0.1%.
COc1ccc(-c2ccc3ccccc3n2)cc1OC was read as Rango release inh 5%, Rango-impB inh 0.6%, miR-21 FLuc -88% and GLA inh pH 4.5 2.
COc1ccc(S(=O)(=O)N2CCCCCC2)cc1NC(=O)CN1C(=O)NC(C)(c2ccc(C)cc2)C1=O (centres undefined) was read as Rango release inh 14% and Rango-impB inh 0.7%.
C=CCn1c(CNc2ccc(C)cc2)nnc1SCC(=O)N/N=C/c1ccc(O)cc1 was read as Rango release inh 8%, Rango-impB inh -0.4%, miR-21 FLuc 0% and GLA inh pH 4.5 -2.
`COc1ccc(Cl)cc1NC(=S)NCc1ccccn1` gave Rango release inh 0%, Rango-impB inh 0.4%, miR-21 FLuc -6% and GLA inh pH 4.5 -1.
For S=C(Cc1ccccc1)Nc1ccccc1 the results were Rango release inh 0% and Rango-impB inh -0.4%.
COC(=O)[C@@]1(Cc2ccccc2)[C@H]2C(=O)N(Cc3ccccc3)C(=O)[C@H]2[C@H]2CN=C(SCc3ccc(C#N)cc3)N21 was read as Rango release inh 10% and Rango-impB inh -0.1%.
O=C(Nc1nc2ccccc2s1)C1CCCN1S(=O)(=O)c1ccc(Cl)cc1 (centres undefined) was read as Rango release inh -29%, Rango-impB inh 0.1%, miR-21 FLuc 10% and GLA inh pH 4.5 -6.
`COc1ccc(-c2n[nH]c(=S)nc2-c2ccc(OC)cc2)cc1` gave Rango release inh 2%, Rango-impB inh -0.1% and miR-21 FLuc -20%.
Cc1ccccc1CC(=O)N1CCCC(CNC(=O)c2ccc(F)cc2)C1 (centres undefined) was read as Rango release inh -2%, Rango-impB inh -2.0% and miR-21 FLuc -3%.
`Cc1ccc(NC(=O)COC(=O)CNC(=O)c2cccc([N+](=O)[O-])c2)cc1S(=O)(=O)N1CCCCCC1` gave Rango release inh -3%, Rango-impB inh -0.9%, miR-21 FLuc 0% and GLA inh pH 4.5 -4.
For Cc1cccc(OCC(=O)NCCNC(=O)c2ccccn2)c1 the results were Rango release inh 0%, Rango-impB inh 0.1% and miR-21 FLuc -1%.
For COc1ccc(NC(=O)CSc2nnc(Cc3cccn3C)n2-c2ccc(F)cc2)cc1 the results were Rango release inh -5%, Rango-impB inh 0.1%, miR-21 FLuc -7% and GLA inh pH 4.5 4.
Cc1ccc(S(=O)(=O)N2CCc3c2cc([N+](=O)[O-])cc3[N+](=O)[O-])cc1 was read as Rango release inh -3%, Rango-impB inh 2.7% and miR-21 FLuc -2%.
For COc1ccc(NC(=O)CN(c2cc(C)cc(C)c2)S(=O)(=O)c2c(C)noc2C)cc1OC the results were Rango release inh -13%, Rango-impB inh 1.7%, miR-21 FLuc -12% and GLA inh pH 4.5 4.
For c1nc2nc3c(c(N4CCOCC4)n2n1)CCCC3 the results were Rango release inh 8%, Rango-impB inh 6.5%, miR-21 FLuc -3% and GLA inh pH 4.5 -3.
`Cc1ccc(S(=O)(=O)Nc2cc(Cl)ccc2-n2cncn2)cc1` gave Rango release inh -3% and Rango-impB inh 0.4%.
C=CCOC(=O)C1=C(C)NC(SC)=C(C#N)C1c1cccs1 (centres undefined) was read as Rango release inh 0%, Rango-impB inh 4.2%, miR-21 FLuc 17% and GLA inh pH 4.5 3.
For COc1ccc2cc(CCOC3CCCCO3)ncc2c1 (centres undefined) the results were Rango release inh -18% and Rango-impB inh -3.5%.
For CCOC(=O)C1(CCOc2ccccc2)CCN(Cc2cnc(C)s2)CC1 the results were Rango release inh 0%, Rango-impB inh 5.1%, miR-21 FLuc -1% and GLA inh pH 4.5 0.
Screening Cn1nc(C(=O)NCCN2CCOCC2)c2ccccc2c1=O returned Rango release inh -1%, Rango-impB inh -0.9%, miR-21 FLuc -5% and GLA inh pH 4.5 1.
For O=c1nc2n(c3sc4c(c13)CCCC4)C(CBr)CS2 (centres undefined) the results were Rango release inh -13%, Rango-impB inh 0.2%, miR-21 FLuc 0% and GLA inh pH 4.5 5.
`COc1ccc(OC)c(C(=O)CSc2nnc(Cc3cccs3)n2CCc2ccccc2)c1` gave Rango release inh 11%, Rango-impB inh 0.9%, miR-21 FLuc -5% and GLA inh pH 4.5 -2.
`CC(C)[C@H](NS(=O)(=O)c1cccc(Cl)c1)C(=O)OCC(=O)N1CCN(c2ccccc2)CC1` gave Rango release inh 0%, Rango-impB inh -5.4%, miR-21 FLuc 14% and GLA inh pH 4.5 0.
Cc1cc(NC(=O)c2noc3c2CCCC3)n(-c2ccccc2)n1 was read as Rango release inh -9%, Rango-impB inh 0.0%, miR-21 FLuc -10% and GLA inh pH 4.5 7.
